Bioassay records from PubChem BioAssay.
Sa growth inh: inhibitors of Staphylococcus aureus growth at 42 °C. S. aureus RN4220 growth, OD600, 20 h; hits give low values. relative growth, % (test concentration not listed). 0.53% of 170,000 active;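 active = growth at 42 °C up to 50% and 20 or more points under that at 30 °C, or under 10% at both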;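 note: 300 nL library stock went into each well; scaled to the means of positive and negative controls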
HCMV UL50-53 inh: cytomegalovirus nuclear egress complex inhibition | HTRF UL50-UL53 interaction, normalized percent inhibition | inhibition, % (test concentration not listed) | 0.15% of 190,000 active;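 active = both replicates at 50% or more, plus weaker picks with an unusually low signal ratio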;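 note: stock transfer was 100 nL into about 20 µL; 0% = negative control wells and 100% = wells with untagged competitor protein; inactives centre near -12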
GIV-Gai inh: GIV-Galpha-i interaction inhibition | percent of control (FP), % (test concentration not listed) | 0.42% of 210,000 active | P08753 | Galpha-i3/FITC-GIV peptide fluorescence polarization, 90 min; hits give low values; scaled: aluminum fluoride 0%, vehicle 100% | AID 1224905;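 active = replicate mean at 85% of control or lower, very high polarization wells dropped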;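 note: wells of about 15 µL received 100 nL stock; the first replicate is given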
Target sequence (P08753 whole entry, looked up): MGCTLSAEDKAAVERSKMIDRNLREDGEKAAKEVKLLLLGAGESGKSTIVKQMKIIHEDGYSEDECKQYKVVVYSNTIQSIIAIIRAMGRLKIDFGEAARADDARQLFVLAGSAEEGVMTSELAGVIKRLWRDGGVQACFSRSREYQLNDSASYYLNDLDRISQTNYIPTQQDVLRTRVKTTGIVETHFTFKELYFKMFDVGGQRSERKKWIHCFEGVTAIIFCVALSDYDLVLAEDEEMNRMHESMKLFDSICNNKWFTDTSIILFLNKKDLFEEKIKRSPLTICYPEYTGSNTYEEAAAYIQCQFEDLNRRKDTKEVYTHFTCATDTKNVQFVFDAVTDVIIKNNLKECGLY
Sa growth inh second temp: further read-out of Sa growth inh, marked with its call; relative growth, %; measured here: growth at 30 °C;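 optical density after 20 h as mean of two plates; 100% = untreated growth and lower means inhibition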
An asterisk follows results filed as active; nt = not tested or not shown; & = joins results of further samples.

SMILES | Sa growth inh | Sa growth inh second temp | HCMV UL50-53 inh | GIV-Gai inh
O=C(Nc1ccc2c(c1)OCO2)c1cccc2c1C(=O)N(Cc1cccnc1)C2 | 87 | 76 | -24 | 104
OC(CNCc1ccc(Cl)cc1)CSc1ccccc1 (stereo unspecified) | 99 | 86 | -8 | 99
O=C(Nc1ccccc1)c1ccncc1 | 103 | 88 | 2 | 102
CC(=O)Nc1ccc(NC(=O)c2ccnn2C)cc1 | 101 | 102 | nt | 105
COc1ccccc1NC(=O)Cn1cc(S(=O)(=O)Cc2ccccc2)c2ccccc21 | 105 | 83 | -10 | 112&120
CCOc1ccc(-c2cc(C(=O)N3CCOCC3)c3c(-c4ccc(C)cc4)[nH]nc3n2)cc1 | 98 | 106 | -9 | 112
O=C(NC1CC1)c1cc(-n2cnnc2)ccc1Cl | 106 | 74 | -13 | 105
Cc1nn(-c2ccccc2)c(C)c1CCC(=O)OCc1ccc(C#N)cc1 | 82 | 95 | -11 | nt
COc1ccc(CCn2c3c(c(=O)[nH]c2=O)C(NC(=O)c2ccccc2OC)(C(F)(F)F)C(=O)N3)cc1OC (stereo unspecified) | 106 | 95 | -8 | 99
COc1cc(C)nc2ccc(C(=O)O)cc12 | nt | nt | -21 | 102
CCOC(=O)Cn1c(=NC(=O)C2COc3ccccc3O2)sc2cc(NC(C)=O)ccc21 (stereo unspecified) | 100 | 83 | -3 | 107
CCN1CCCC1CNC(=O)c1noc2c1COc1ccc(C)cc1-2 (stereo unspecified) | 103 | 90 | nt | 110
CC(C)(C)c1nc2ccccc2[nH]1 | 106 | 88 | -18 | 98
COc1ccccc1-c1nc2c3c(-c4ccccc4)c(-c4ccccc4)oc3ncn2n1 | 107 | 90 | -4 | 106
CC(C)(C)c1csc(-c2ccc(-c3cccs3)s2)n1 | 89 | 95 | -10 | 109

Whole records from above. Values in the order: Sa growth inh | Sa growth inh second temp | HCMV UL50-53 inh | GIV-Gai inh
`CCOc1ccc(-c2cc(C(=O)N3CCOCC3)c3c(-c4ccc(C)cc4)[nH]nc3n2)cc1` is listed with 98 | 106 | -9 | 112
`O=C(Nc1ccc2c(c1)OCO2)c1cccc2c1C(=O)N(Cc1cccnc1)C2` is listed with 87 | 76 | -24 | 104
`O=C(Nc1ccccc1)c1ccncc1` is listed with 103 | 88 | 2 | 102
`COc1ccccc1-c1nc2c3c(-c4ccccc4)c(-c4ccccc4)oc3ncn2n1` is listed with 107 | 90 | -4 | 106
`CCOC(=O)Cn1c(=NC(=O)C2COc3ccccc3O2)sc2cc(NC(C)=O)ccc21` (stereo unspecified) is listed with 100 | 83 | -3 | 107

(list continues)
SMILES | Sa growth inh | Sa growth inh second temp | HCMV UL50-53 inh | GIV-Gai inh
COC(=O)c1cc(CSc2nnc(-c3ccccc3)c(-c3ccccc3)n2)oc1C | 87 | 94 | -32 | nt
CC(C)Cn1c(O)c(N=NC(=S)NC(C)C)c2ccccc21 | 117 | 81 | -53 | nt
CCN1C(=O)c2c(C(=O)NC(C)C)ncn2CC1(C)C(=O)NCCCOC(C)C (stereo unspecified) | nt | nt | -31 | 107
Cc1nn(Cc2noc(-c3cccc(F)c3)n2)c(C)c1S(=O)(=O)N1CCCC1 | nt | nt | -26 | 106
Cc1ccc(S(=O)(=O)NC(=O)NC(C)(C)C)cc1 | 109 | 86 | -10 | 101
O=C(NCc1ccc2c(c1)OCO2)c1cc2ccccc2s1 | 115 | 81 | -14 | 108
Cc1ccc(NC(=O)Nc2cc3c(cc2N2CCCC2)n(C)c(=O)n3C)cc1C | 108 | 92 | 12 | 104
O=C(Nc1ccc(N2CCOCC2)cc1)c1cnc2ccccc2n1 | 104 | 86 | -90 | 105
COc1ccc2ccccc2c1C(O)c1cccs1 (stereo unspecified) | 106 | 86 | -22 | nt
CCOC(=O)c1ccc(-n2c(CC)nc3c(C)csc3c2=O)cc1 | 90 | 91 | -22 | 102
Cc1ccc(CCNC(=O)c2cc3cc4cc(C)ccc4nc3s2)cc1 | 97 | 93 | nt | 102
Cc1ccc(NCc2nnc(SCc3nc4ccccc4c(=O)[nH]3)n2Cc2ccco2)c(C)c1 | 109 | 92 | -35 | 100
CCOc1ccc2oc(=O)cc(CN3CCN(c4ccc(Cl)cc4)CC3)c2c1 | 110 | 89 | 2 | 99
OC(CN1CCCCC1)CN1CCCCC1 | 87 | 83 | -176 | 100
Cc1nnc2c(=O)n(CC(=O)Nc3ccc(C(C)C)cc3)c3ccccc3n12 | nt | nt | -30 | 102
Cc1ccc(C(=O)CSc2ncn(-c3ccccc3)n2)cc1 | 107 | 100 | -40 | 101
CCOC(=O)c1c(C)nc2n(C)c3ccccc3n12 | nt | nt | -11 | 99
Cc1ccc(NCC(O)Cn2c3ccccc3c3ccccc32)cc1 (stereo unspecified) | 90 | 77 | nt | 100
Cc1cc2ccccc2n1-c1ccc(C(=O)N2CCC(C(=O)NCc3ccc(F)cc3)CC2)s1 | 102 | 90 | nt | 111
c1ccc2sc(SCc3cn4cccnc4n3)nc2c1 | 99 | 77 | nt | 99
Cc1ccc(NC(=O)c2cc(C)no2)cc1 | 106 | 87 | 1 | 101
CCCCSCCCNC(=O)c1cn(C)c2ccc(S(=O)(=O)N3CCCCC3)cc2c1=O | 86 | 91 | 3 | 101
CC(NCC1CCCO1)C(=O)N(C(C)C)C(C)C (stereo unspecified) | 87 | 87 | -27 | 102
CC(=O)Nc1cc(C(=O)O)ccc1Sc1ccccc1 | 104 | 80 | -4 | 95
O=C(C1CCCCC1)N1CCC(n2nnc3ccccc32)CC1 | 80 | 77 | 12 | 109
COc1ccc(N2CCN(S(=O)(=O)c3ccc(OC)c(-c4nc(C(C)C)no4)c3)CC2)cc1 | nt | nt | 0 | 101
CC(=O)Nc1ccc(NC(=O)CCC(=O)c2ccccc2)cc1 | 103 | 93 | nt | 102
Clc1ncnc2c1[nH]c1ccccc12 | 88 | 73 | -26 | 108
CC(c1ccccc1)C(CC(=O)Nc1nccs1)C(=O)Nc1nccs1 (stereo unspecified) | 116 | 99 | -2 | 110
CCn1c(O)c(N=NC(C)=O)c2ccccc21 | 73 | 89 | -72 | nt
Cc1cc(-c2nnc(SCC(=O)c3ccccc3)n2C)no1 | 98 | 92 | -7 | 101
CSc1ccc(Cn2cccc2C2=NC(C(C)C)CO2)cc1 (stereo unspecified) | 82 | 98 | nt | 105
Cc1ccc(S(=O)(=O)C(CNC(=O)COc2ccccc2)c2ccco2)cc1 (stereo unspecified) | 99 | 96 | nt | 94
Cn1cc2c(n1)c(=O)n(Cc1ccc(Cl)cc1)c1nn(Cc3cc(F)cc(F)c3)c(=O)n21 | nt | nt | -6 | 99
O=C(NCCc1ccc(F)cc1)C(=O)NCC(c1cccs1)S(=O)(=O)c1cccs1 (stereo unspecified) | 97 | 101 | nt | 101
CSc1ncc(Cl)c(C(=O)NCc2ccc(C)cc2)n1 | 109 | 89 | -13 | 105
CCc1nc(C)cn1S(=O)(=O)c1cc(Br)c(C)cc1OC | 119 | 101 | 9 | 112
O=c1cc(N2CCN(S(=O)(=O)c3ccc(F)cc3)CC2)nc2sc(-c3ccccc3)nn12 | nt | nt | 2 | 99
CC(=O)Nc1ccccc1OCC(=O)N(C)Cc1ccco1 | 101 | 93 | -25 | nt
O=C(OCC(=O)N1CCCCC1)c1ccc(OC(F)(F)F)cc1 | 133 | 89 | -19 | nt
C=CCNC(=O)c1sc(N2CCCCC2)nc1N | nt | nt | 5 | 107
O=c1c(Cl)c(N2CCCC2c2ccc3c(c2)OCCO3)cnn1-c1nc2ccccc2[nH]1 (stereo unspecified) | 106 | 77 | -47 | nt
COc1ccc(CCn2cnc3scc(-c4ccccc4)c3c2=O)cc1OC | nt | nt | -6 | 101
CC(=O)Nc1ccc(S(=O)(=O)NNc2ncnc3sccc23)cc1 | 99 | 94 | -24 | 101
O=C(CCc1nnc2ccc(NCc3ccc(F)cc3)nn12)NCC1CCCO1 (stereo unspecified) | nt | nt | -23 | 103
CC(=NCC(c1ccco1)N1CCCCC1)C1=C(O)CC2(CCCCC2)CC1=O (stereo unspecified) | 81 | 88 | -24 | nt
COc1ccc(OCCOc2ccc(C)cc2OC)cc1 | 110 | 69 | -6 | 98
O=C1Nc2ccccc2/C1=C/c1cccc(Cl)c1 | 71 | 68 | -14 | nt
Cc1nn(C(=O)c2ccc(C(C)(C)C)cc2)c(N)c1-c1ccccc1 | 93 | 90 | 0 | nt
CC(C)(C)c1ccc(S(=O)(=O)Nc2cc(C(=O)NC3CCCC3)ccc2N2CCNCC2)cc1 | nt | nt | -7 | 100
O=C(NC1CCCCC1)C(Cc1ccccc1)n1cccc1 (stereo unspecified) | 117 | 92 | -2 | 105
Cc1cccc(N2CCN(C(=O)c3cc(S(=O)(=O)N4CCC(C)CC4)cn3C)CC2)c1C | 95 | 91 | nt | 103
O=C(COc1ccc(-c2ccccc2)cc1)Nc1ncccn1 | 118 | 85 | -41 | nt
COc1cccc(C2CC(c3cccs3)=NN2C(=O)CSC2CCCCC2)c1OC (stereo unspecified) | 122 | 90 | nt | 98
CCOC(=O)/C(=C\c1ccc(OCC(=O)O)cc1)C1=Nn2c(nnc2C2CCCCC2)SC1 | 84 | 89 | -7 | nt
CCCN(CCC)C(=O)Cn1c(=O)n(Cc2ccc(C(=O)NCCc3ccc(Cl)cc3)cc2)c(=O)c2ccccc21 | 92 | 96 | -27 | 112
CCc1ccc(S(=O)(=O)c2nnn3c2nc(NCC2CCCO2)c2cc(Cl)ccc23)cc1 (stereo unspecified) | nt | nt | 0 | 122
O=C(CSc1ncccc1C(=O)Nc1ccc2c(c1)OCCO2)Nc1ccc2c(c1)OCO2 | 82 | 91 | -20 | nt
CSCCC(NS(=O)(=O)c1ccc2c(c1)oc(=O)n2C)C(=O)N1CCN(c2cc(Cl)ccc2C)CC1 (stereo unspecified) | 120 | 98 | nt | 101
O=C(N/N=C/c1ccccn1)c1ccccc1NS(=O)(=O)c1cccs1 | 110 | 66 | -26 | nt

Four compounds picked at random from the list so far, as already listed:
SMILES | Sa growth inh | Sa growth inh second temp | HCMV UL50-53 inh | GIV-Gai inh
O=C(CSc1ncccc1C(=O)Nc1ccc2c(c1)OCCO2)Nc1ccc2c(c1)OCO2 | 82 | 91 | -20 | nt
CCOC(=O)/C(=C\c1ccc(OCC(=O)O)cc1)C1=Nn2c(nnc2C2CCCCC2)SC1 | 84 | 89 | -7 | nt
COc1ccc(OCCOc2ccc(C)cc2OC)cc1 | 110 | 69 | -6 | 98
CCc1ccc(S(=O)(=O)c2nnn3c2nc(NCC2CCCO2)c2cc(Cl)ccc23)cc1 (stereo unspecified) | nt | nt | 0 | 122

Following part.
SMILES | Sa growth inh | Sa growth inh second temp | HCMV UL50-53 inh | GIV-Gai inh
CC(C)(C)c1ccc(C(=O)N(Cc2ccco2)C2CCS(=O)(=O)C2)cc1 (stereo unspecified) | 99 | 94 | 5 | 105
Cc1ccc(-n2nc(C)c3cc(C#N)c4nc5ccccc5n4c32)cc1 | 85 | 83 | -5 | nt
Cc1ccc(OCC(=O)NCC(c2ccc(Cl)cc2)N2CCCCC2)cc1 (stereo unspecified) | 112 | 86 | -12 | 103
O=C(NCc1cccs1)c1ccc2c(=O)n3nc(Nc4ccccc4)sc3nc2c1 | 109 | 86 | nt | 99
CC(=O)Nc1c(O)nc(SCC(=O)NC(C)c2ccccc2)n(-c2ccccc2)c1=O (stereo unspecified) | 109 | 77 | -25 | 100
CCn1c(=O)c(=O)n(CC(=O)O)c2ccccc21 | nt | nt | -13 | 105
COC(=O)C1=CNC=C(C(=O)OC)C1c1ccc(C(=O)OC)cc1 | 105 | 85 | -45 | 102
O=C(COc1ccccc1)OCC(=O)c1cccc(C(F)(F)F)c1 | 70 | 93 | 2 | nt
Cc1nc2ccccc2c2nc(NC(=O)c3ccc4nsnc4c3)nn12 | 84 | 95 | -19 | 93
Cc1ccc(C(=O)CSCC(=O)Nc2ccccc2)s1 | 70 | 93 | -16 | nt
CN(C)c1ccc(C(CNS(=O)(=O)c2ccc(F)cc2)N2CCOCC2)cc1 (stereo unspecified) | 106 | 94 | nt | 98
Cc1nnc(SCc2ccccc2Cl)c2cc3occc3n12 | 84 | 88 | nt | 108
O=c1c(O)c(-c2ccccc2O)[nH]c2ccccc12 | 57 | 48 | -70 | nt
Cc1cc(C=C2C(=O)CCCC2=O)c(C)n1-c1ccccc1 | 102 | 72 | -31 | nt
COc1ccc(OCc2nc3c4c(-c5ccc(OC)cc5)c(-c5ccc(OC)cc5)oc4ncn3n2)cc1 | 115 | 90 | -2 | 97
COc1ccccc1Nc1nn2c(=O)c3ccc(C(=O)NC4CCCCC4)cc3nc2s1 | 71 | 92 | nt | 100
CCOc1ccc(S(=O)(=O)Nc2cc3c(C(=O)OC)c(COC)oc3c3ccccc23)cc1 | 102 | 94 | -41 | 109
Cc1cc(NS(=O)(=O)c2ccc(NC(=O)c3ccncc3)cc2)nc(C)n1 | 95 | 81 | nt | 104
COC(=O)c1ccc(Oc2nc(SC)nc(N(C)C)n2)cc1 | nt | nt | -20 | 105
CCOC(=O)c1nnn2c1nc(Sc1nc3ccccc3[nH]1)c1ccccc12 | 93 | 85 | -9 | 103
COc1c(C)cc(S(=O)(=O)N2CCN(c3ccc(F)cc3)CC2)c(C)c1C | 103 | 94 | -8 | 105
O=C(Nc1cc(Cl)cc(Cl)c1)C(Sc1cccc[n+]1[O-])c1ccccc1 (stereo unspecified) | 90 | 83 | -22 | nt
Cc1cc(-c2nn3c(-c4cccc(F)c4)nnc3s2)c2ccccc2n1 | nt | nt | 2 | 106
O=c1c(Nc2ccc(Cl)cc2)c(-c2ccccc2)c1=O | nt | nt | -52 | 104
C=CCN1C(=O)CS/C1=C(\C#N)S(=O)(=O)c1ccc(C)cc1 | 89 | 100 | 8 | 111

Compounds were not picked by outcome; overall some 0.85% were active at least once.
